# Assay outcomes (PubChem BioAssay)
# GLA inh pH 4.5 = alpha-galactosidase A (human) inhibition, pH 4.5; P06280; purified enzyme, 4-MU-alpha-Gal fluorescence, pH 4.5; activity change, negative = inhibition, % at 105 µM; 230,000 tested, under 10 active; inconclusive = small, poorly fitted or top-dose-only inhibition, or a rising curve; inactive = flat fitted curve, though single readings scatter; no compound was filed as active;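 also: 0% = full activity with enzyme and -100% = basal without enzyme; dose as in the result columns while the protocol names 77 µM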
# Target sequence (P06280 whole entry, looked up): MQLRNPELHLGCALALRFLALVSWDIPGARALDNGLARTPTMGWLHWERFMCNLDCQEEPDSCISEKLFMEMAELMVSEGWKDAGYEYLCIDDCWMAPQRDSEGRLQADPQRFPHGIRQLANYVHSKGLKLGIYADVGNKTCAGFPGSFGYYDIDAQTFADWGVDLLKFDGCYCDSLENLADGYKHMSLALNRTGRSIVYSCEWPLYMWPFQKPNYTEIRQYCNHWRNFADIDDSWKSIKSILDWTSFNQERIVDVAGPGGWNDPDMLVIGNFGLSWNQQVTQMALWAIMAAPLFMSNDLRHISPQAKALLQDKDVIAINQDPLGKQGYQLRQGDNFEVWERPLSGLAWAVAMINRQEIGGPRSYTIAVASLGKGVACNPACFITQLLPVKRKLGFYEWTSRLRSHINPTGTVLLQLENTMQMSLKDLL
# Rango release inh = prevents RanGTP from dissociating the Rango-importin beta complex; Biochemical FRET Rango-importin beta, RanGTP-induced dissociation; Potency, µM (top dose mostly 46.1 µM), without a hit: at the highest dose activity change, negative = inhibition; 0.071% of 340,000 active; active means falling FRET ratio curve, often poorly fitted, with flat reads before Ran was added; inconclusive means other falling curves, or compound fluorescence or quenching; inactive means flat or rising ratio curve;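 also: potency is read from the fitted curve at half-maximal effect; % of control where 0% means no effect; nearly all actives have a fitted effect of over 45% in size; -100% = wells without RanGTP and RCC1; the record marks most hits as doubtful in a second field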
#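 Quantitative HTS using a FRET biosensor: 0.1 uM Rango, 0.25 uM importin beta, 0.6 uM Ran, 2 mM GTP, 0.2 uM RCC1 final, PBS with DTT, Tween-20 and BSA. Post-read taken 45 min after Ran addition.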
# Rango-impB inh = inhibitors of Rango-importin beta complex formation. Q14974. Rango CFP/YFP FRET sensor + importin beta, 45 min. Potency, µM (titrated, usually from 92.2 µM), without a hit: at the highest dose inhibition of complex formation. AID 540263. 0.031% of 340,000 active; active = rising FRET ratio curve, often small or poorly fitted; inconclusive = mostly compound fluorescence or quenching in the first reads; inactive = flat curves in all reads;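 also: potency is read from the fitted curve at half-maximal effect; 0% = DMSO wells and 100% = buffer wells lacking importin beta; nearly all actives have a fitted effect of over 15% in size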
#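 FRET biosensor Rango (snurportin 1 IBB between N-terminal EYFP and C-terminal Cerulean), 50 nM in PBS/1 mM DTT/0.02% Tween-20/0.1% BSA, preincubated 5 min RT with compound; 0.125 microM importin beta added, 45 min RT, CFP/YFP FRET ratio read.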
# miR-21 reporter = miR-21 reporter, rising signal; HeLa miR-21 FLuc reporter, luciferase, 48 h; Potency, µM (series often up to 38.3 µM), inactives show at the top dose reporter change, positive = more light; 340,000 tested, under 10 active; AID 2288; active = well fitted rising curve with a large enough effect; inconclusive = small, poorly fitted or top-dose-only effect; inactive = no such curve, though single readings can be large or run the other way;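 also: % of control where 0% means no effect; miR-21 action dims this reporter so a rising signal means less miR-21 action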
#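 Luminescence from a firefly luciferase reporter carrying a miR-21 binding site downstream, stably expressed under a CMV promoter in HeLa cells that make miR-21 endogenously, reports miRNA modulation after 48 h compound exposure up to approximately 40uM final.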
# * = called active by the depositor; ? = inconclusive; nt = not tested or not shown; & = joins results of further samples.
# Preview (2 entries):
compound	GLA inh pH 4.5	Rango release inh	Rango-impB inh	miR-21 reporter
N=c1n(CCO)c2ccccc2n1Cc1ccccc1	-6	-11%	1.9%	-1%
CC1N=C(c2ccccc2Cl)c2cc(Br)ccc2NC1=O (stereo not given)	nt	1%	2.9%	21%

# This part in full (from the top)
compound	GLA inh pH 4.5	Rango release inh	Rango-impB inh	miR-21 reporter
N=c1n(CCO)c2ccccc2n1Cc1ccccc1	-6	-11%	1.9%	-1%
CC1N=C(c2ccccc2Cl)c2cc(Br)ccc2NC1=O (stereo not given)	nt	1%	2.9%	21%
c1cncc(CNCCc2ccc3c(c2)OCO3)c1	nt	23%	-0.6%	-1%
CCN1C(=O)c2ccccc2Sc2ccc(C(=O)N3CCC4(CC3)OCCO4)cc21	6	-21%	-1.9%	-6%
CC(=O)N(C)C1=Nc2ccc(Cl)cc2C(c2ccccc2)=[N+]([O-])C1	nt	14%	-2.0%	nt
CCOP(=O)(Oc1ccccc1)c1c([N+](=O)[O-])cc(C(F)(F)F)cc1[N+](=O)[O-] (stereo not given)	nt	19%	?	-1%
Oc1cccc2cccnc12	7	nt	nt	4%
CN1C[C@H](C(=O)NC2(C)OC3(O)[C@@H]4CCCN4C(=O)[C@H](Cc4ccccc4)N3C2=O)CC2c3cccc4[nH]cc(c34)C[C@H]21 (stereo not given in full)	nt	?	?	nt
CN(C)P1(N(C)C)=NC(C(F)(F)F)=NC(C(F)(F)F)=N1	5	9%	-2.9%	-1%
N/C(=N/[N+](=O)[O-])N1CCN(C(=O)Oc2ccc([N+](=O)[O-])cc2)CC1	nt	27%	1.9%	-2%
COC(=O)C1=C(c2ccc(F)cc2F)C[C@@H]2CC[C@H]1N2C(=O)NCCCOC(C)C	nt	-11%	2.8%	nt
N[C@@H](Cc1c[nH]c2ccccc12)c1nnc(SCc2ccc(F)cc2)o1	-9	12%	-3.2%	-10%
N#CC1=C(N)Oc2c(c(=O)sc3ccccc23)C1c1cccnc1 (stereo not given)	7	-11%	-5.8%	14%
COc1ccc(-n2c(O)c(C(C)=NCCN3CCNCC3)c(=O)[nH]c2=O)cc1	7	12%	3.6%	?
CCOC1=C(N2CC2)C(=O)C(OCC)=C(N2CC2)C1=O	nt	-9%	4.6%	nt
O=C(NC(Oc1ccccc1)C(Cl)(Cl)Cl)c1ccccc1 (stereo not given)	3	1%	0.5%	-3%
CC(=O)n1cc(C=C2C(=O)NC(=O)NC2=O)c2ccccc21	nt	12%	4.4%	1%
Cc1ccccc1N1C(=O)CC(=O)N(c2ccccc2C)C1=O	-1	2%	4.5%	-18%
CN(C)CCN(C(=O)COc1ccc(Cl)cc1)c1nc2cc3c(cc2s1)OCO3	nt	?	0.4%	-14%
c1ccc(-c2ccc(-c3n(-c4ccccn4)c4ccccc4[n+]3-c3ccccn3)cc2)cc1	9	0%	?	17%
Cc1c(N=Nc2c(O)n(Cc3ccccc3)c(=O)[nH]c2=O)c(=O)n(-c2ccccc2)n1C	-8	30%	2.6%	-4%
COc1cccc(CNCCc2ccc3c(c2)OCO3)c1OC	nt	1%	-5.6%	-21%
N#CC(=C(O)c1ccc(S(=O)(=O)N(CCCl)CCCl)cc1)c1nc2ccccc2[nH]1	nt	-8%	3.7%	nt
COc1ncccc1C(=O)NCC(CC(=O)O)c1ccccc1 (stereo not given)	-4	16%	0.3%	-6%
Oc1ccc(CC2(N3CCCC3)CCCCC2)cc1	nt	-6%	3.7%	3%
CCOC(=O)CC(SP1(=S)OCC2(CCCCO2)C(C2CCCCO2)O1)C(=O)OCC (stereo not given)	nt	7%	2.7%	nt
CCN1CCN(c2ccc(N)c(C)c2)CC1	-4	?	5.6%	-1%
CN1CCN(Cc2nc3ccccc3n2C)CC1	-18	-10%	0.5%	-7%
Cc1ccc2c(c1)CCCN2N=O	-2	-16%	1.2%	-1%
C[C@]12CC[C@H](O)CC1=CCC1C2CC[C@]2(C)C(=O)[C@H](Br)CC12 (stereo not given in full)	nt	-3%	-5.7%	nt

# Copied from the list:
# CCOC(=O)CC(SP1(=S)OCC2(CCCCO2)C(C2CCCCO2)O1)C(=O)OCC (stereo not given) in Rango release inh reads 7%
# N#CC(=C(O)c1ccc(S(=O)(=O)N(CCCl)CCCl)cc1)c1nc2ccccc2[nH]1 in Rango release inh reads -8%
# COc1ncccc1C(=O)NCC(CC(=O)O)c1ccccc1 (stereo not given) in miR-21 reporter reads -6%
# Cc1c(N=Nc2c(O)n(Cc3ccccc3)c(=O)[nH]c2=O)c(=O)n(-c2ccccc2)n1C in miR-21 reporter reads -4%

# Going on with the list:
compound	GLA inh pH 4.5	Rango release inh	Rango-impB inh	miR-21 reporter
CSc1ccccc1C(=O)C1CCCN(Cc2cccc(C)n2)C1 (stereo not given)	3	19%	-3.1%	-3%
O=c1[nH]c(=S)n(C2CC2)c(O)c1C=NCCN1CCOCC1	-12	0%	1.9%	1%
S=C(N1CCCCCC1)N1CC1	nt	-2%	1.0%	nt
CC(C)NS(=O)(=O)c1ccc(OCC(=O)N2CCN(Cc3ccc4c(c3)OCO4)CC2)c(Cl)c1	-4	0%	12%	21%
COc1cc2c(cc1OC)C13CCN4CC5=CCOC6CC(=O)N2C1C6C5C3C4 (stereo not given) (tested in a mixture with another compound)	nt	-2%	-0.1%	nt
N=C1c2ccccc2CN1NC(=O)c1ccc(F)cc1	4	-2%	-2.9%	-9%
Clc1ccc2sc(C3CCNCC3)nc2c1	nt	5%	-0.8%	-25%
N#CCCn1cc(C(=O)O)c(-c2cccc([N+](=O)[O-])c2)n1	0	-4%	-0.8%	0%
COC(=O)C1=C(c2cc3ccccc3s2)C[C@@H]2CC[C@H]1N2C(=O)NC(C)C	nt	26%	-0.4%	nt
O=C(O)C1CC2(Cl)C(Cl)=C(Cl)C1(Cl)C2(Cl)Cl (stereo not given)	nt	0%	0.8%	nt
CC(C)CNc1c2c(nc3ccccc13)CCC2	nt	2%	0.8%	?
Nc1c(C(=O)NCC2CCCO2)c2nc3ccccc3nc2n1Cc1ccco1 (stereo not given)	-11	?	?	4%
CCCCNC(=O)Nc1ccc(C(O)(C(=O)OC)C(F)(F)F)cc1 (stereo not given)	4	1%	1.2%	-18%
Cc1ccnc(NS(=O)(=O)c2ccc(N=Cc3c(O)n(C)c(=O)n(C)c3=O)cc2)n1	2	?	?	1%
O=C(O)CCn1cc(C=C2C(=O)NC(=O)NC2=O)c(-c2ccc(Br)cc2)n1	-7	13%	-3.0%	1%
CC(=O)OC1(C)CC(C)C(=O)C(C(O)CC2CC(=O)NC(=O)C2)C1 (stereo not given)	nt	9%	-1.7%	nt
C[C@]12CCC3C(CC[C@H]4C[C@@H](O)CC[C@]34C)C1C[C@@H](O)[C@@H]2O (stereo not given in full)	nt	1%	7.2%	nt
Cc1cc(OC(=O)c2cccs2)c2c3c(c(=O)oc2c1)CCCC3	6	15%	-2.0%	-5%
O=C(O)CCCOc1ccc(Cl)cc1Cl	4	-24%	1.8%	nt
COc1cc(/C=C2/SC(=S)N(Cc3ccccc3)C2=O)ccc1OCC(=O)O	nt	?	?	-18%

# Looked up by structure from the entries so far (4):
compound	GLA inh pH 4.5	Rango release inh	Rango-impB inh	miR-21 reporter
O=C(O)CCn1cc(C=C2C(=O)NC(=O)NC2=O)c(-c2ccc(Br)cc2)n1	-7	13%	-3.0%	1%
CCCCNC(=O)Nc1ccc(C(O)(C(=O)OC)C(F)(F)F)cc1 (stereo not given)	4	1%	1.2%	-18%
COc1cc(/C=C2/SC(=S)N(Cc3ccccc3)C2=O)ccc1OCC(=O)O	nt	?	?	-18%
Nc1c(C(=O)NCC2CCCO2)c2nc3ccccc3nc2n1Cc1ccco1 (stereo not given)	-11	?	?	4%

# Remaining list, next part
compound	GLA inh pH 4.5	Rango release inh	Rango-impB inh	miR-21 reporter
COc1ccc(OC)c(N2C(=O)NC(=O)C(CCc3ccncc3)(CCc3ccncc3)C2=O)c1	-7	-6%	-2.6%	1%
CN(C)CCNC(=O)c1cccn(Cc2cc(C(F)(F)F)cc(C(F)(F)F)c2)c1=O	3	-12%	3.0%	-8%
COc1cc2c(cc1OC)C(C(=O)NC(C)C)C1CCCCN1C2=O (stereo not given)	-28	9%	1.7%	-5%
N/C(=N/[N+](=O)[O-])N1CCN(C(=O)c2ccc(Cl)cc2)CC1	-3	-6%	4.0%	1%
COc1ccccc1N1C(=O)CC(=O)NC1=O	nt	10%	1.3%	-1%
BrCC(Br)C1CCC(Br)C(Br)C1 (stereo not given)	nt	-13%	-1.4%	nt
CC1=C/C(=N\NC(=S)NCCc2ccccc2)CC(C)(C)C1	-5	6%	?	-44%
CCC(=O)N1CCN(CCN=Cc2c(O)n(C)c(=O)n(C)c2=O)CC1	-1	-6%	-0.6%	-2%
CCOP(=O)(OCC)C(NC(=O)c1ccccc1Cl)=C(Cl)Cl	?	-10%	3.2%	-2%
O=C1NC(=O)N(c2ccccc2)C(=O)/C1=C/c1ccc2c(c1)Cc1ccccc1-2	-3	nt	nt	-23%
CCCCCn1c(=O)c(C(=O)NCc2ccc(Cl)cc2)c(O)c2ccccc21	nt	-9%	-1.1%	0%
CN1CC[C@]23c4c5ccc(O)c4OC2C(O)C=CC3[C@H]1C5 (stereo not given in full)	nt	-11%	-3.5%	nt
c1ccc(-c2[nH]c[n+](CC3CO3)c2-c2ccccc2)cc1 (stereo not given)	8	nt	nt	-4%
COC(=O)C1=C(c2ccc(OC)c(OC)c2)C[C@@H]2CC[C@H]1N2C(=O)NCC1CC1	nt	-11%	-0.1%	nt
O=P(O)(O)Cc1ccccc1OP(=O)(c1ccccc1)c1ccccc1	-5	16%	-1.2%	-11%
CN1Cc2c(c(C#N)c(N)n(C)c2=S)CC1(C)C	20	?	?	-1%
CC(=O)[C@H]1CCC2C3CC[C@H]4C[C@@H](O)CC[C@]4(C)C3CC[C@@]21C (stereo not given in full)	nt	7%	0.1%	nt
CN1C2C=C(N(C(=O)c3ccc(Cl)cc3)c3ccccc3)CC1CC2 (stereo not given)	6	1%	6.0%	-12%
CCSc1cc(C2C(C#N)=C(N)Oc3n[nH]c(C)c32)c(C)o1 (stereo not given)	-4	2%	3.4%	17%
CC(C)c1ccc(N(C(=O)c2csnn2)C(C(=O)NC2CCCC2)c2ccncc2)cc1 (stereo not given)	nt	2%	2.6%	-53%
COc1ccc(CN2CCCCC2c2cccnc2)cc1C (stereo not given)	-6	0%	3.9%	0%
CCNc1nc(Cl)nc(NC(C)C)n1	2&10	-12%	-1.3%	-4%
Cc1nnc2n1-c1ccc(Br)cc1C(c1ccccc1Cl)=NC2	-1	-11%	2.6%	-2%
COC(=O)C1=C(c2ccc(S(C)(=O)=O)cc2)C[C@@H]2CC[C@H]1N2C(=O)N1CCC(C)CC1	nt	-15%	-5.4%	nt
CCC1(Cc2ccccc2)C(=O)NC(=S)N(C)C1=O (stereo not given)	nt	2%	-2.2%	nt
COc1ccc(OC)c(/C=N/OC(=O)Nc2ccc(Cl)cc2)c1	-4	1%	3.4%	-21%
Cc1ccc(OC(=O)c2ccc(Br)o2)cc1	9	40%	0.7%	-2%
C=CCN1C(=O)c2ccccc2Sc2ccc(C(=O)N3CCC4(CC3)OCCO4)cc21	7	2%	-2.9%	11%
CCCN(CCC)C(=O)Cc1c(-c2ccc(Cl)cc2)nc2c(Cl)cc(Cl)cn12	-5	-20%	-3.9%	nt
CN1[C@@H]2CC[C@H]1CC(OC(=O)C1C=Nc3ccccc31)C2 (stereo not given in full)	nt	2%	-2.7%	-11%
COc1cc(/C=N/NC(=O)c2cnccn2)cc(OC)c1OC	1	25%	4.3%	-3%
CC(C)C(=O)c1cn(Cc2ccc(C#N)cc2)c2ccccc12	-12	-14%	-0.1%	-1%
COC(=O)C1=C(c2ccc(S(C)(=O)=O)cc2)C[C@@H]2CC[C@H]1N2C(=O)NCc1ccc(F)cc1	nt	-17%	-4.3%	nt

# Some of the compounds tested; rates above refer to the full screens.
